Screens: PubChem, several laboratories
B2AR ag – beta2AR agonists driving receptor internalization, primary screen, cell-based, FAP fluorogen, flow cytometry | 0.43% of 340,000 active | Am2.2-beta2AR cells; reference of the scale not given here | response, % (no concentration beside the values);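 active = response above a set limit, near 3 SD of response in nonfluorescent compounds, cut at about 42% in these data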;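 note: stock transfer was 100 nL into about 11 µL; a reference agonist was the positive control; negative values mostly stem from fluorescent compounds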
Target sequence (P07550 whole entry, looked up): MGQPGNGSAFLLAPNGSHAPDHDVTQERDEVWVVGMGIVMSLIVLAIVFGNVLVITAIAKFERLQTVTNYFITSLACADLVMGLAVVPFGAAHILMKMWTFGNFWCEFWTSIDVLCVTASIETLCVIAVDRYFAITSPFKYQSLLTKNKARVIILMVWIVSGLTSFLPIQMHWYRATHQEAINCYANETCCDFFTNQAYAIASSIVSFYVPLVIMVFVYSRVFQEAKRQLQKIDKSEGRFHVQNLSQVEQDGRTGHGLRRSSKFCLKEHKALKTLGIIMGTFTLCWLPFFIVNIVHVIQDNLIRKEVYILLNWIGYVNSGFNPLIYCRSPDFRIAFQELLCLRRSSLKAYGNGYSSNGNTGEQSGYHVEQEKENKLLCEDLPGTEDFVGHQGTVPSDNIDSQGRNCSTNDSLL
HNF4A DNA FP – change in binding of human HNF4A to DNA, primary screen, biochemical, fluorescence polarization, FITC-DNA | Hepatocyte nuclear factor 4-alpha (Homo sapiens), P41235 | 1 h | activity change, % at 10 µM | 0.3% of 360,000 active; in the data active = activity change above about 30%, passing the limit was not always enough;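 note: controls were the assay level and a saturating level of protein; the project sought stronger binding though the title names inhibitors; some compounds called inactive have numbers as strong as hits; positive values seem to mean higher polarization but the record does not say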
Target sequence (P41235 whole entry, looked up): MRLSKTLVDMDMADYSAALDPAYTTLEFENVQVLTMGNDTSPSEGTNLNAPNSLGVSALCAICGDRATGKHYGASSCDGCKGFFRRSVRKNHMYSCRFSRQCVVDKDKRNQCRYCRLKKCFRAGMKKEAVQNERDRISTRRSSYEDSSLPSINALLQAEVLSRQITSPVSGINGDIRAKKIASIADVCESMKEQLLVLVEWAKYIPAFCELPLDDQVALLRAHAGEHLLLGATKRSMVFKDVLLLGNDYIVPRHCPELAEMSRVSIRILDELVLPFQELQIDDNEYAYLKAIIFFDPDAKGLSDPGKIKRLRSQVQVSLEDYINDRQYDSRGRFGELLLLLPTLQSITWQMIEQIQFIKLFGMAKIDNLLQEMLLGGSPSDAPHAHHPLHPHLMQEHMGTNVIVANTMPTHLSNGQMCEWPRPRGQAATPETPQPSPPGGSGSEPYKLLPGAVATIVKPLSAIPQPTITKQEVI
* = called active by the depositor. This is a subset. The share of hits here may be higher or lower than overall.

SMILES | B2AR ag | HNF4A DNA FP
Cc1cn(CC(=O)NCCN2CCOCC2)c(=O)[nH]c1=O | -4.3 | -5.7
CC(C)(C)N(Cc1ccc2c(c1)OCO2)C(=O)/C=C\S(=O)c1ccccc1 (stereo not given) | -2.7 | -0.8
COc1cccc(CN(C)C(=O)Cn2cc(C)c(=O)[nH]c2=O)c1 | -3.6 | 2.0
CC[C@@H]1C(=O)[C@H](Cc2ccccc2)[C@H]2CCCC(=O)N3CC[C@@H]1[C@@H]23 | -10.8 | 0.3
O=C(O)C1(Nc2ccc([N+](=O)[O-])cc2[N+](=O)[O-])CCCC1 | -4.9 | 1.7
CCOC(=O)CC[C@H](NC(=O)Cn1cc(C)c(=O)[nH]c1=O)C(=O)OCC | 11.1 | 4.7
Cc1ccc(S(=O)(=O)N(C)c2ccc(OC(=O)c3cc(=O)[nH]c4ccccc34)cc2)cc1 | -3.4 | 2.1
COc1ccc(C2C(C#N)=C(N)Oc3cc(O)ccc32)cc1 (stereo not given) | -1.2 | 2.8
Cc1ccc(C(C)C)c(O)c1C(=O)O | 2.5 | 3.1
CC1CC2CCCC(O)=C2C(=O)O1 (stereo not given) | 3.8 | -2.5
COc1ccc(S(=O)(=O)N(C)CC(=O)NCCCN2CCOCC2)cc1C | -1.0 | 1.4
Cc1cccc(C)c1OCc1cn(CC(=O)c2ccc(O)cc2)nn1 | -5.9 | -0.8
O=C(Nc1ccnn1C1CCNCC1)c1ccc2c(c1)OCO2 | -11.5 | 1.5
O=C(Cn1cc(COc2cccc([N+](=O)[O-])c2)nn1)c1ccc(O)cc1 | 3.9 | 4.2
CC1(C2CCC3(C)OC3C2)CO1 (stereo not given) | -2.1 | -2.2
COc1cccc(CN(C)CCCn2cnc(C(=O)Nc3ccc(C)c(C)c3)n2)c1 | -4.2 | -4.8
COc1ccc(/C=C(\C#N)c2nc3ccccc3[nH]2)cc1O | -0.7 | 3.0
COC(=O)CCC(C)C1CCC2C3CCC4CC(O)CCC4(C)C3CC(O)C12C (stereo not given) | 11.5 | -0.6
C#CCOCCOCCOCCNc1nc(N2CCN(C(=O)Cn3cc(CC(C)O)nn3)CC2)nc(N2CCN(C(=O)[C@H]([C@@H](C)CC)n3cc(CCCCN)nn3)CC2)n1 (stereo not given in full) | 1.3 | -0.6
CNc1nc(=O)n(C2CCCO2)cc1C (stereo not given) | 2.3 | -1.7
Cc1onc(C(=O)Nc2cccc(C(F)(F)F)c2)c1[N+](=O)[O-] | -3.8 | -5.5
CC(C)C[C@H]1CNC(=S)N1CC1CCCN1C[C@H](CC(C)C)N1C[C@H](Cc2ccccc2)N(CC2CCCCCC2)C1=S (stereo not given in full) | 7.2 | -3.3
Cc1ccc(NCCCn2cnc(C(=O)Nc3ccc(C)c(C)c3)n2)cc1C | -3.2 | -3.7
CCCCCCCCNCCS(=O)(=O)NCc1ccccc1 | 10.1 | 0.2
COc1cc(CCc2ccccc2)c(C(=O)O)c(O)c1CC=C(C)C | 4.7 | 1.3

One compound at a time, as listed above. Values in the order: B2AR ag	HNF4A DNA FP
C#CCOCCOCCOCCNc1nc(N2CCN(C(=O)Cn3cc(CC(C)O)nn3)CC2)nc(N2CCN(C(=O)[C@H]([C@@H](C)CC)n3cc(CCCCN)nn3)CC2)n1 (stereo not given in full) as listed: 1.3	-0.6
CCOC(=O)CC[C@H](NC(=O)Cn1cc(C)c(=O)[nH]c1=O)C(=O)OCC as listed: 11.1	4.7
O=C(O)C1(Nc2ccc([N+](=O)[O-])cc2[N+](=O)[O-])CCCC1 as listed: -4.9	1.7
Cc1ccc(S(=O)(=O)N(C)c2ccc(OC(=O)c3cc(=O)[nH]c4ccccc34)cc2)cc1 as listed: -3.4	2.1
CC1(C2CCC3(C)OC3C2)CO1 (stereo not given) as listed: -2.1	-2.2

Some of the entries so far, with each value named:
canonical_smiles: C#CCOCCOCCOCCNc1nc(N2CCN(C(=O)Cn3cc(CC(C)O)nn3)CC2)nc(N2CCN(C(=O)[C@H]([C@@H](C)CC)n3cc(CCCCN)nn3)CC2)n1 (stereo not given in full)
  B2AR ag = 1.3; HNF4A DNA FP = -0.6
canonical_smiles: Cc1ccc(C(C)C)c(O)c1C(=O)O
  B2AR ag = 2.5; HNF4A DNA FP = 3.1
canonical_smiles: CC1(C2CCC3(C)OC3C2)CO1 (stereo not given)
  B2AR ag = -2.1; HNF4A DNA FP = -2.2
canonical_smiles: CCCCCCCCNCCS(=O)(=O)NCc1ccccc1
  B2AR ag = 10.1; HNF4A DNA FP = 0.2

More compounds
SMILES | B2AR ag | HNF4A DNA FP
Cn1c(=O)c2[nH]c(CSCc3ccccc3)nc2n(C)c1=O | -9.0 | -5.1
O=Cc1ccc(OCc2cn(CC(=O)c3ccc(O)cc3)nn2)cc1 | -7.2 | -2.4
O=C1C2CCCCN2C(=O)N1CCN1CCN(c2ccc(F)cc2)CC1 (stereo not given) | 0.2 | -3.4
CC(C)(C)OC(=O)N1CCC(C(=O)Nc2ccc(C(=O)NCCc3ccccc3)cc2)CC1 | 0.5 | -3.7
COc1ccc(NC(=O)C(OC(=O)Cn2cnc3c2c(=O)n(C)c(=O)n3C)c2ccccc2)cc1Cl (stereo not given) | 0.1 | -4.8
O=C(OCc1ccccc1)N1CCC2CC1c1cc(-c3ccccc3)ccc12 (stereo not given) | -2.0 | -0.6
CC(C)C[C@@H](CNCC(=O)[C@H](Cc1ccccc1)NC(=O)c1[nH]cnc1C(=O)N[C@@H](C)CN)NC(=O)c1nc[nH]c1C(=O)N[C@@H](C)C(=O)O | -0.2 | 3.7
CCN(CC)CCNC(Cc1ccccc1)c1cccc(OC)c1 (stereo not given) | -16.6 | -0.6
CCCCN1CC(CO)Oc2cccc(F)c2S1(=O)=O (stereo not given) | 5.0 | 4.6
COc1ccc(S(=O)(=O)N(C)C)cc1NC(=O)C1CCN(c2ncnc3sc(C)c(C)c23)CC1 | 9.6 | -0.7
Cc1ccc(S(=O)(=O)Oc2ccc(/C=N/N=C3/NC(=O)C(CC(=O)O)S3)cc2)cc1 (stereo not given) | -6.4 | 7.3
c1ccc(CN2CCC3CC2c2cc(N4CCOCC4)ccc23)cc1 (stereo not given) | -3.1 | -1.7
CC(Oc1ccccc1Cl)C(=O)Nc1ccc(S(=O)(=O)N2CCN(C)CC2)cc1 (stereo not given) | -2.9 | 1.5
c1ccc(COc2ncnc3c2ncn3CCCNCC2CCCO2)cc1 (stereo not given) | -12.2 | -3.7
Cc1nnc(NS(=O)(=O)c2ccc(F)cc2)s1 | 4.5 | 3.8
O=C(OCc1ccccc1)N(CCCCN(CCCNCc1ccccc1)C(=O)OCc1ccccc1)CCCNCc1ccccc1 | 39.6 | 3.3
O=C1CCC[C@@H]2[C@H](Cc3ccccc3)[C@@H](O)C[C@@H]3CCN1[C@@H]32 | -2.9 | 0.8
CCOC(=O)C1=C(N)n2c(s/c(=C\c3cccnc3)c2=O)=C(C#N)C1c1cccnc1 (stereo not given) | -27.4 | 2.8
CCOc1ccc(NC(=O)c2cccc(S(=O)(=O)Nc3c(C)n(C)n(-c4ccccc4)c3=O)c2)cc1 | 0.6 | 2.2
CCOc1cc(C)nc(N2CCC(C(=O)NC3CC3)CC2)n1 | 2.7 | 0.9
O=C(NCCCc1ccccc1)c1cccc(NC(=O)C2CCCCC2)c1 | 5.7 | 0.0
COc1ccc(C(=O)COC(=O)c2cnc(C)cn2)cc1OC | -31.4 | 0.5
O=C(NC1CCN(Cc2ccccc2)CC1)c1ccccc1NS(=O)(=O)c1ccc(F)c(F)c1 | 4.9 | 2.4
O=C(CNc1cccc2ccccc12)N/N=C/c1ccc(OC(=O)/C=C/c2ccco2)cc1 | -4.8 | -0.1
O=C(c1ccccc1)c1coc(-c2ccccc2)c1 | -8.5 | -0.8

(cont.)
SMILES | B2AR ag | HNF4A DNA FP
C(COC1CC2CC1C1C2CC2OC21)OC1CC2CC1C1C2CC2OC21 (stereo not given) | -10.9 | -0.6
O=C1CCC[C@@H]2C[C@@]3(C[C@@H]4CCN1[C@H]24)Nc1cc(Cl)c(Cl)cc1NC3=NCc1ccccc1 | 18.6 | 3.7
N#CC(c1ccc(O)cc1)N1CCN(C(C#N)c2ccc(O)cc2)CC1 (stereo not given) | -7.0 | -3.1
CCC(C(=O)NC1CCCC1)n1c2ccccc2c2nc(=O)cc(C)n21 (stereo not given) | -4.5 | 5.8
CC(=O)c1ccc(OC(=O)Oc2ccc(C(C)=O)cc2)cc1 | -2.1 | 1.2
COc1ccc2c(=O)c3c(=O)n(Cc4ccccc4)c(C(C)C)nc3oc2c1 | -14.3 | -1.5
COc1ccc(CCNCc2ccc(-c3ccccc3)cc2)cc1OC | 26.5 | -1.8
CC(NC(=O)C1CCCC1)c1ccccc1 (stereo not given) | -3.5 | -0.5
Cc1ncc([N+](=O)[O-])n1S(=O)(=O)c1ccc2c(c1)OCCO2 | -2.2 | -0.6
O=S(=O)(CCNCc1ccccc1)NC1CCCCC1 | -7.5 | 1.3
C=CCOc1ccc2c3c(c(=O)oc2c1)CCCC3 | -8.6 | 0.9
Cc1ccnc(NC(=O)c2cccc(NC(=O)c3ccc(Cl)c(Cl)c3)c2)c1 | 10.7 | -3.7
Clc1ccc2c(SCC3CO3)c3ccccc3nc2c1 (stereo not given) | 82.5* | -6.7
COc1ccc2c(C)cc(=O)oc2c1 | -5.5 | -0.4
Cc1cn(CC(=O)NCC2CCCO2)c(=O)[nH]c1=O (stereo not given) | 3.1 | -5.9
COc1ccc(CCNC(=O)C2COc3ccccc3O2)cc1OC (stereo not given) | 3.1 | -1.0
CN(C)c1cccc(C(=O)Nc2ccc(S(=O)(=O)Nc3nccs3)cc2)c1 | -0.4 | 5.1
CC1(C)C(=O)NCCN1C(=O)CC1C(=O)NCCN1Cc1cccc(C(F)(F)F)c1 (stereo not given) | 1.8 | 4.3
O=C(Cn1c(C(=O)c2ccccc2)nc2ccccc21)c1ccc(Cl)cc1 | -3.1 | -3.6
Cc1cc(C)c2c(ccc3ccccc32)n1 | -1.2 | 3.8
O=c1c(O)c(-c2ccc(O)c(O)c2)oc2cc(O)ccc12 | 7.8 | 1.7
Nc1nc(Cl)nc2c1ncn2C1OCC(O)C(O)C1O (stereo not given) | -5.1 | -1.9
Cn1c(=O)c2c(nc(CCC3CCCC3)n2C)n(C)c1=O | -29.5 | -4.5
CCN(C(=O)CN1CCCc2cc(C)ccc21)c1c(N)n(Cc2ccccc2)c(=O)[nH]c1=O | 2.4 | -27.6
Cc1ccc(CN2CCN(CCCn3cnc4c(OCc5ccccc5)ncnc43)CC2)cc1 | 15.6 | -0.6

(listing goes on)
SMILES | B2AR ag | HNF4A DNA FP
CCN(C(=O)CSc1nnc(COc2ccccc2F)n1N)c1c(N)n(Cc2ccccc2)c(=O)[nH]c1=O | 0.2 | -0.8
Cc1cn(CC(=O)NCc2ccccn2)c(=O)[nH]c1=O | 0.5 | -1.1
CN1OC[C@@H]2CN(C(=O)C(C)(C)C)[C@H](c3cccc(N4CCOCC4)c3)C[C@@H]21 | -2.5 | -1.1
CC(C)C[C@@H](CNCC(=O)[C@H](Cc1ccccc1)NC(=O)c1[nH]cnc1C(=O)N[C@H](CN)CC(C)C)NC(=O)c1nc[nH]c1C(=O)N[C@@H](CC(=O)O)C(=O)O | -3.9 | 2.6
O=C1C(=C(I)I)c2ccccc2-c2ccccc21 | 75.7* | -0.1
COc1cc(C2CC(=O)Oc3cc(OC)c(OC)c(OC)c32)cc(OC)c1OC (stereo not given) | -0.8 | -1.7
O=C(NCc1ccccc1)c1ccccc1 | 9.2 | -1.9
CCCCC(CC)CN1CN(CC(CC)CCCC)CC(C)(N)C1 (stereo not given) | 32.7 | -2.4
Cc1cc2c(cc1C)C(=O)C(=O)N2 | -15.7 | 8.2
CCOc1cc(/C=N/NC(=O)c2cccs2)cc([N+](=O)[O-])c1O | 7.3 | -1.2
CC(C)C[C@@H](CNCC(=O)[C@H](C)NC(=O)c1[nH]cnc1C(=O)N[C@@H](C)CN)NC(=O)c1nc[nH]c1C(=O)N[C@@H](Cc1ccccc1)C(=O)O | -3.3 | -0.6
